# Screening data deposited in PubChem BioAssay by Southern Research Specialized Biocontainment Screening Center.
# Mtb bLac sens = beta-lactam sensitization of Mtb H37Rv | 330,000 compounds, 0.27% hits | inhibition, % at 25 µM | M. tuberculosis H37Rv growth with meropenem, percent inhibition; hits of this screen are not shown here | AID 434955;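 active = about 74% or more and at least 40 points above the plate without the antibiotic, then above 30% in a dose series; inconclusive = first-round hits that could not be retested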;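 also: growth measured after seven days incubation then overnight dye step; 0% = bacteria only wells and 100% = bacteria with antibiotic; twin plates without the antibiotic show which effects depend on it; some results filed as inactive read as strong as hits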
# The depositor's hits bear a star; ? = inconclusive. Some of the compounds tested; the hit share may differ from the screen's.
SMILES,Mtb bLac sens
CCN(C(=O)CN1C(=O)CN(C)C1=O)c1cccc2ccccc12,14.2
COc1ccc(C)cc1NC(=O)CN1CCN(S(=O)(=O)c2ccc3ccccc3c2)CC1,-5.9
O=C(CC1CCCC1)N1CCCC(Nc2ccc(F)cc2)C1 (centres undefined),?
COc1cccc(C2=CC(=O)C[C@H](c3ccc(Cl)cc3)C2)c1OC,83.9
COCCn1c(C)cc(/C=N/NC(=O)c2cc3ccccc3cc2O)c1C,-0.9
CCC(C(=O)OCC(=O)N1CCN(c2ccc(OC)cc2)CC1)c1ccccc1 (centres undefined),5.2
Cc1cc(C)nc(SCc2ccc(Br)cc2)n1,0.2
COc1ccc(C=O)cc1,-4.5
O=C(CCC(=O)Nc1ccccc1Cl)NNC(=O)C1CCCCC1,-6.0
O=C(CCNC(=O)c1ccccc1Cl)Nc1cccc(S(=O)(=O)N2CCCC2)c1,4.8
CSc1ccccc1C(=O)OCC(=O)N1CCN(C(C)=O)CC1,10.5
CCOC(=O)[C@H]1[C@H]2COc3ccc(Cl)cc3[C@@H]2N2C(=O)c3cc(C)ccc3NC(=O)[C@@]12C,64.3
COc1cc(C#Cc2ccc3cc(CCCO)oc(=O)c3c2)cc(OC)c1,9.5
NS(=O)(=O)c1ccc(CNC(=O)c2cccc(S(=O)(=O)N3CCc4ccccc43)c2)cc1,-3.6
COc1ccc2sc(-c3ccc(S(C)(=O)=O)cc3)c(-c3ccc4c(c3)OCCO4)c2c1,6.7

# Continued, overlapping the part above by two compounds.
SMILES,Mtb bLac sens
NS(=O)(=O)c1ccc(CNC(=O)c2cccc(S(=O)(=O)N3CCc4ccccc43)c2)cc1,-3.6
COc1ccc2sc(-c3ccc(S(C)(=O)=O)cc3)c(-c3ccc4c(c3)OCCO4)c2c1,6.7
COC(=O)c1ccc(OCC(=O)NCCC2=CCCCC2)c(OC)c1,60.0
CCOc1ccc(NC(=O)CN(C)Cc2ccc3c(c2)OCO3)cc1S(=O)(=O)N1CCCC1,-1.3
O=C(NCC(c1ccco1)N1CCCC1)c1cc(=O)[nH]c2ccccc12 (centres undefined),-5.4
COc1ccc2ccc(OCC(=O)Nc3cc(C)on3)cc2c1,-0.4
O=C(COC(=O)/C=C/c1ccc(F)cc1)NC1CC1,-3.0
CC(=O)NC(c1cc(Cl)c2ccccc2c1O)C(C)C (centres undefined),1.9
C[C@H](CO)N1C[C@H](C)[C@@H](CN(C)C(=O)Nc2ccc(C(F)(F)F)cc2)Oc2c(cccc2N(C)C)C1=O,-6.0
CCN(CC(=O)NCc1ccc(F)cc1)C(=O)/C=C/c1ccc(OC)cc1,-0.6
O=C(O)c1cccc(Sc2ccc(Br)cc2C(=O)O)c1,-11.3
COc1cc(C(=O)NC(C)C2CC3CCC2C3)ccc1OC(F)F (centres undefined),2.0
O=C1N(c2ccccc2C(F)(F)F)O[C@@]1(c1ccccc1)C1CCCC1,-2.4
O=C(CNC(=O)c1ccc(Br)o1)NNC(=O)c1n[nH]c(=O)c2ccccc12,-13.9
COc1ccc(CNC(=O)C(C)N2CCN(S(=O)(=O)c3ccccc3F)CC2)cc1 (centres undefined),-6.1
O=C(OCCN1C(=O)c2ccccc2C1=O)[C@@H]1CC(O)CN1S(=O)(=O)c1ccccc1[N+](=O)[O-] (some centres undefined),4.3
Cc1nc2ccc(NS(=O)(=O)c3cccc([N+](=O)[O-])c3)cc2s1,-1.9
CC(C)c1ccc(CN2CCN(S(=O)(=O)c3ccc(Cl)s3)CC2)cc1,0.9
Cc1ccc(C)c(OCC(=O)N(C)CC(=O)Nc2ccc(Cl)c(C(F)(F)F)c2)c1,-10.3
CC(OC(=O)c1ccco1)C(=O)Nc1nc(-c2ccccc2)cs1 (centres undefined),2.7
CCCCn1c(N)c(N(CCOC)C(=O)c2ccc(C)c(S(=O)(=O)N3CCOCC3)c2)c(=O)[nH]c1=O,1.3
Cc1ccsc1CN(C)CC(=O)NCC(=O)Nc1ccc(F)cc1,-5.6
COCc1cc(=O)c2ccccc2o1,3.5
COc1ccc(S(N)(=O)=O)cc1C(=O)OCCCC(=O)c1ccccc1,-1.6
O=C(NC1CCCCC1)C(c1ccco1)N(C(=O)c1csnn1)c1ccc(Cl)cc1 (centres undefined),-1.9
COc1ccc(S(=O)(=O)N2CCOCC2)cc1C(=O)N(C)Cc1ccco1,3.7
O=C(CNS(=O)(=O)c1c(F)cccc1F)NC1CCCc2ccccc21 (centres undefined),-1.9
CCOc1cc(NC(=O)C2CC2)c(OCC)cc1NC(=O)c1ccccc1OCC,40.9
CN1CCc2cc3c(cc2[C@H]1[C@@H]1OC(=O)c2c1ccc1c2OCO1)OCO3,-2.7
C=CCOC(Cn1ccnc1)c1ccc(Cl)cc1Cl (centres undefined),92.5
CC(=O)NC12CC3CC(C1)CC(C(=O)OCC(=O)Nc1c(F)cccc1F)(C3)C2,-5.1
Cc1ccc(F)cc1NS(=O)(=O)c1ccc(Cl)s1,-7.1
COc1ccc(OC(=O)C(C)N2C(=O)c3ccccc3C2=O)cc1 (centres undefined),0.6
COc1cc(S(=O)(=O)N2CCn3cccc3C2C)ccc1NC(C)=O (centres undefined),-3.9
CN(C)C1=NC[C@H](Cc2ccccc2)N1CCCC1CCCC1,-5.2
Cc1ccc(S(=O)(=O)N2CCOCC2)cc1C(=O)Nc1ccc2c(c1)OCCO2,-4.5
CC(=O)C[C@H](O)CC(=O)[C@H]1OC(=O)[C@H](C)CCCCc2ccccc21,-8.8
CC(OC(=O)CCN=C1NS(=O)(=O)c2ccccc21)C(=O)Nc1ccc(N(C)C)cc1 (centres undefined),-5.0
CCC1CCCCN1C(=O)CSc1n[nH]c(N)n1 (centres undefined),-2.0
C[C@H](CO)N1C[C@H](C)[C@@H](CN(C)S(C)(=O)=O)Oc2ccc(NC(=O)Nc3ccc4c(c3)OCO4)cc2C1=O,-1.6
O=C(Nc1ccc(Cl)cc1)C1(S(=O)(=O)c2ccccc2)CC1,-6.8
COc1ccccc1C(=O)OCc1cc(=O)n2ccsc2n1,2.2
CN(C(=O)c1cccc(NC(=O)Cc2ccccc2)c1)c1ccccc1,0.6
C[C@H]1CN=C(N(C)C)N1CCC1CCCCC1,-2.6
Cc1ccc(S(=O)(=O)NCCN2CCN(S(=O)(=O)c3ccccc3Cl)CC2)cc1,-3.2
O=C(Nc1ccc(Oc2ccc(Br)cc2)cc1)C1=CC=CN2CCS(=O)(=O)N=C12,2.5
CCOC(=O)CC(=O)Nc1ncnc2c1C(c1ccccc1)c1c(ccc3ccccc13)O2 (centres undefined),7.7
CC1(NC(=O)Cn2cc(C(F)(F)F)ccc2=O)CCS(=O)(=O)C1 (centres undefined),-0.3
CCOc1ccc(CN2CCN(C(=O)Cc3ccccc3)CC2)cc1,-0.7
Cc1cc(C)n(-c2ccc(NC(=O)C3CCCCN3C(=O)c3sccc3C)cc2)n1 (centres undefined),?
Cc1onc(-c2ccccc2Cl)c1C(=O)OCC(=O)N1CCC(C)CC1,-7.3
C=CCOc1ccc(/C=C/C(=O)OCC(=O)N2CCN(C(C)=O)CC2)cc1,-1.1
CCCn1nc(C(=O)NNC(=O)c2ccc(OC(F)F)cc2)c2ccccc2c1=O,-7.0
O=C(Nc1c(F)cccc1F)C(c1ccccc1)c1ccccc1,-5.0
CN(C(=O)c1cccc(NC(=O)Cc2cccc([N+](=O)[O-])c2)c1)C1CC1,2.6
O=C(CNC(=O)c1cccc([N+](=O)[O-])c1)NC1CCCc2ccccc21 (centres undefined),-4.0
CCOc1ccccc1C(=O)NCC(=O)Nc1ccc2c(c1)OCO2,-2.6
CCOc1ccc(S(=O)(=O)N2CCN(C(=O)C3CC3C)CC2)cc1 (centres undefined),-3.0
CCCCNc1c(-c2ccc(-c3ccc(C(C)=O)cc3)c(OC)c2)nc2cc(C)ccn12,95.7
OC/C(Br)=C(\Br)CO,0.8
C=CC[C@@H](CC(=O)N(CCO)Cc1ccccc1)C(=O)NC[C@@H](OC(=O)[C@@H](CC=C)Cc1ccc(F)cc1)c1ccccc1,-3.3
C[C@@H](OC(=O)c1[nH]cnc1C(=O)NCc1ccc(CNC(=O)OC(C)(C)C)cc1)c1ccccc1,14.3
# Later entries
SMILES,Mtb bLac sens
O=C(Cc1ccccc1)OCc1ccccc1,5.7
COc1ccccc1CCC(=O)NNC(=O)c1cccs1,-0.9
CC1CCN(C(=O)c2[nH]cnc2C(=O)N2CCN(c3ccccc3)CC2)CC1,-6.2
CC(C)[C@H](NC(=O)c1ccccc1Cl)C(=O)OCC(=O)Nc1ccc(S(=O)(=O)N2CCOCC2)cc1,-2.6
CC1(C)O[C@@H]2[C@H](O1)[C@@H](COS(=O)(=O)O)O[C@H]2n1cc(Br)c(=O)[nH]c1=O,-7.8
CC(=NNC(=O)c1ccc2nc[nH]c2c1)c1ccc(Br)cc1,-4.0
COc1ccc([N+](=O)[O-])cc1NS(=O)(=O)c1ccc(C(=O)N2CCCC2)cc1,100.0
C[C@@H]1CN([C@H](C)CO)C(=O)c2cc(NC(=O)Nc3ccc4c(c3)OCO4)ccc2O[C@H]1CN(C)Cc1ccncc1,2.9
COCc1c(C(=O)OCC(=O)NCc2ccco2)oc2ccccc12,4.5
CC(=O)c1c(C)[nH]c(C(=O)CN2CCN(S(=O)(=O)c3ccccc3[N+](=O)[O-])CC2)c1C,-6.7
O=C(O)c1cccc(Sc2cc(Cl)ccc2C(=O)O)c1,-1.7
CC(=O)Nc1cccc(C(=O)OCc2csc(CC(=O)Nc3ccccc3C)n2)c1,3.1
Cc1c(C(N)=O)sc2ncn(CC(=O)N(C)C3CCCCC3)c(=O)c12,-4.6
O=C(Nc1nccs1)C1CC=CCC1C(=O)OCC(F)(F)C(F)F (centres undefined),-1.1
CC(=O)NC(CC(=O)OCC(=O)N1c2ccccc2NC(=O)C1(C)C)c1ccccc1 (centres undefined),-4.9

# Already shown: 15 of the compounds above.
SMILES,Mtb bLac sens
CCN(C(=O)CN1C(=O)CN(C)C1=O)c1cccc2ccccc12,14.2
COc1ccc(C)cc1NC(=O)CN1CCN(S(=O)(=O)c2ccc3ccccc3c2)CC1,-5.9
O=C(CC1CCCC1)N1CCCC(Nc2ccc(F)cc2)C1 (centres undefined),?
COc1cccc(C2=CC(=O)C[C@H](c3ccc(Cl)cc3)C2)c1OC,83.9
COCCn1c(C)cc(/C=N/NC(=O)c2cc3ccccc3cc2O)c1C,-0.9
CCC(C(=O)OCC(=O)N1CCN(c2ccc(OC)cc2)CC1)c1ccccc1 (centres undefined),5.2
Cc1cc(C)nc(SCc2ccc(Br)cc2)n1,0.2
COc1ccc(C=O)cc1,-4.5
O=C(CCC(=O)Nc1ccccc1Cl)NNC(=O)C1CCCCC1,-6.0
O=C(CCNC(=O)c1ccccc1Cl)Nc1cccc(S(=O)(=O)N2CCCC2)c1,4.8
CSc1ccccc1C(=O)OCC(=O)N1CCN(C(C)=O)CC1,10.5
CCOC(=O)[C@H]1[C@H]2COc3ccc(Cl)cc3[C@@H]2N2C(=O)c3cc(C)ccc3NC(=O)[C@@]12C,64.3
COc1cc(C#Cc2ccc3cc(CCCO)oc(=O)c3c2)cc(OC)c1,9.5
NS(=O)(=O)c1ccc(CNC(=O)c2cccc(S(=O)(=O)N3CCc4ccccc43)c2)cc1,-3.6
COc1ccc2sc(-c3ccc(S(C)(=O)=O)cc3)c(-c3ccc4c(c3)OCCO4)c2c1,6.7

# Next part:
SMILES,Mtb bLac sens
CCCCN(C(=O)C1=NN(c2ccccc2)C(=O)CC1)c1c(N)n(CCC)c(=O)[nH]c1=O,-3.0
COc1cc(C(=O)OC(C)c2ccc(F)cc2)ccc1OCC(=O)N1CCOCC1 (centres undefined),-8.7
S=P(N1CC1)(N1CC1)N1CC1,1.6
O=C(COC(=O)c1c(Cl)cccc1Cl)Nc1cccc(S(=O)(=O)NC2=NCCCCC2)c1,-6.5
N#CCCN(C(=O)CN1c2cccc3cccc(c23)S1(=O)=O)c1ccccc1,-2.3
COc1ccc2c(CC(=O)NNC(=O)c3ccc(C)cc3)coc2c1,-6.2
COc1cc(C)c(CN2CCN(CC(=O)Nc3ccccc3C(=O)NC3CC3)CC2)cc1OC,-6.4
C[C@H](NC(=O)c1ccco1)C(=O)NNC(=O)c1ccc(F)cc1,-2.6
Cn1c(SCC(=O)Nc2ccc3c(c2)OCCO3)nnc1C(F)(F)F,5.5
O=[N+]([O-])c1ccc(Cl)c(S(=O)(=O)NCCc2ccccn2)c1,0.7
COc1ccccc1NC(=O)COc1ccc(C(=O)NCc2ccccc2)cc1OC,61.9
CN(CC(=O)Nc1ccc2c(c1)OCO2)CC(=O)Nc1ccc(F)c(F)c1F,0.0
CN(C)S(=O)(=O)c1ccc(N2CCOCC2)c(C(=O)NCc2ccc3c(c2)OCO3)c1,-3.9
COc1ccc(Br)c(C(=O)OCC(=O)N2CCc3ccccc32)c1,68.5
CCOc1ccc(-c2nnc(SCC(=O)NC3CC3)o2)cc1,40.4
Cc1ccc(C(=O)NNC(=O)c2ccc(S(=O)(=O)N3CCCCC3)cc2)cc1,5.7
N#CCCN1CCN(S(=O)(=O)c2ccc(C3CCCCC3)cc2)CC1,3.4
Cc1ccc(C2(C)NC(=O)N(CC(=O)N3CCc4ccccc43)C2=O)cc1 (centres undefined),-5.7
Cc1ccccc1-c1cc(C(=O)NCC2CC2)n(CC2CC(c3cccnc3)=NO2)n1 (centres undefined),-0.8
Cc1ccc(C(=O)OCC(=O)Nc2ccccc2)cc1S(=O)(=O)N1CCCCC1,2.4
CCN1CCN(c2ccc(S(=O)(=O)N3CCOCC3)cc2NC(=O)c2cccc([N+](=O)[O-])c2)CC1,-6.3
O=C(COC(=O)c1ccccc1F)NC(=O)NC1CCCC1,-10.2
COc1ccc(-c2c(-c3cc(OC)cc(OC)c3)n(C)c3ccc(-c4ccc(OC)cc4F)cc23)cc1,2.0
O=C1CC(N2CCN(S(=O)(=O)c3ccccc3F)CC2)C(=O)N1c1ccccc1Cl (centres undefined),3.3
COC(=O)[C@@H]1OC(=O)[C@H]2O[C@@]23[C@@]1(C)CC[C@@H]1[C@@]2(C)C=CC(=O)OC(C)(C)[C@@H]2CC(=O)[C@]13C,-12.2
COC(=O)C1=C(c2ccc(F)cc2OCc2ccccc2)C[C@@H]2CC[C@H]1N2C(=O)NCc1ccc(C)cc1,2.1
Cc1ccc(OCC(=O)Nc2ccc(NC(=O)c3ccco3)cc2)c(C)c1,-0.8
